# HBB splicing = modulators of hemoglobin beta chain splicing. HBB splicing reporter cell assay, activation; EGFP reporter with mutant IVS2-654 intron; response scale: normalised to 500 nM splice-correcting PNA. Potency, µM (titrated, usually from 46.1 µM), for inactives: at the top dose activation, actives largely listed as activators. actives 0.06% (n = 65,000); note: potency is the fitted concentration of half-maximal effect; 0% is about no effect
#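 Compounds were applied for 2 days to HeLa EGFP-654 cells, 500/well in Optimem with 2% FCS. The reporter's EGFP is disrupted by mis-splicing of beta-globin intron IVS2-654. Readout: summed well GFP fluorescence from 488 nm laser scanning; reference was 500 nM antisense […] 654 PNA.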
# DNA Pol III inh = blocks replication by bacterial DNA polymerase III holoenzyme | Potency, µM (highest dose often 57.1 µM), without a hit: top-dose activity change, negative = inhibition | reconstituted DNA polymerase III holoenzyme replication, biochemical | actives 0.25% (n = 71,000) | AID 603; note: potency is the fitted concentration of half-maximal effect; % is set by controls: 0 for no effect and ±100 for the full control effect
#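 Reconstituted *E. coli* holoenzyme (0.35 nM Pol III, 1 nM beta, 154 nM SSB, 2 nM primase) was preincubated with compound for 15 min at RT. Synthesis on 1.4 nM ssM13Gori ran 35 min, then was stopped with PicoGreen/EDTA and read as dsDNA fluorescence.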
# UbGFP stabilizer = inhibits proteasome, raising ubiquitin-GFP reporter fluorescence; Ubiquitin-GFP reporter cells, proteasome inhibition, GFP fluorescence; response scale: untreated = 0%, 10 µM MG-132 = 100%; Potency, µM (top dose mostly 45.9 µM), for the others: at the highest dose activation (GFP accumulation), usual class: activators; 67,000 tested, under 10 active; active = well fitted activation curve with a large enough effect, not every such curve was filed as active; inconclusive = small, poorly fitted or top-dose-only effect, or another doubt; inactive = no such curve, though single readings can be large or run the other way; note: potency is the fitted concentration of half-maximal effect
#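 GFP accumulation read-out: laser plate cytometry counting ubiquitin(G76V)-GFP-expressing U2OS cells after 4 hr compound exposure at 37 °C. Titrations spanned 46 uM to 2.9 nM; 0% = basal, 100% = 10 uM MG-132; concentration-response curves fitted.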
# 15-hLO inh = inhibitors of human 15-lipoxygenase (ALOX15); AID 887; purified 15hLO-1, xylenol orange hydroperoxide absorbance; Potency, µM (top dose mostly 57.1 µM), for inactives: top-dose activity change, negative = inhibition, hits mostly inhibitors; actives 1.4% (n = 74,000); P16050; note: potency is the fitted concentration of half-maximal effect; % is set by controls: 0 for no effect and ±100 for the full control effect; nearly all actives have a fitted effect of over 55% in size
#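 Inhibition is scored from a chromogenic endpoint. After 15 min enzyme-compound contact, arachidonic acid (50 uM final) reacts 6 min with 40 nM 15hLO-1 at room temperature, then Fe-XO reagent is added for 30 min and absorbance ratio recorded.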
# BRCT inh green = inhibitors of human BRCA1 BRCT-phosphoprotein interaction (green fluorophore) | P38398 | BRCA1 BRCT-phosphopeptide binding, green fluorescence polarization | Potency, µM (top dose mostly 76.9 µM), for inactives: top-dose activity change, negative = inhibition, usual class: inhibitors | actives 0.05% (n = 75,000) | AID 875;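 note: potency is the fitted concentration of half-maximal effect; plate controls were peptide without protein for full effect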
#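 Fluorescence polarization: His-tagged BRCT (~35 kDa BRCA1 C-terminus, 250 nM) bound to 100 nM fluorescein-labeled phosphorylated 10-aa BACH1 peptide, pH 7.3 phosphate buffer with DTT and Tween 20. Compounds incubated 12 min at room temperature; inhibition read as lowered polarization.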
# Hsp90 Hop PPI = changes Hsp90-Hop TPR2A binding signal, up or down; AlphaScreen TPR2A-His6 binding biotin-Hsp90 C-terminal peptide; Potency, µM (top dose mostly 57 µM), for inactives: top-dose activity change, negative = inhibition; actives 0.44% (n = 71,000); AID 595; active = well fitted curve in either direction with a large enough effect; inconclusive = small, poorly fitted or top-dose-only effect, or another doubt; note: potency is the fitted concentration of half-maximal effect; % is set by controls: 0 for no effect and ±100 for the full control effect; many of its hits are not listed in these tables
# USP2a inh = inhibitors of human ubiquitin-specific protease USP2a. O75604. USP2a enzymatic assay, qHTS inhibition. Potency, µM (titrated, usually from 38.3 µM), without a hit: at the highest dose activity change, negative = inhibition, usual class: inhibitors. actives 0.1% (n = 60,000). AID 927;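 note: potency is the fitted concentration of half-maximal effect; nearly all actives have a fitted effect of over 60% in size; plate controls were DMSO for no effect and NEM full inhibition control for full effect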
# Target sequence (O75604 whole entry, looked up): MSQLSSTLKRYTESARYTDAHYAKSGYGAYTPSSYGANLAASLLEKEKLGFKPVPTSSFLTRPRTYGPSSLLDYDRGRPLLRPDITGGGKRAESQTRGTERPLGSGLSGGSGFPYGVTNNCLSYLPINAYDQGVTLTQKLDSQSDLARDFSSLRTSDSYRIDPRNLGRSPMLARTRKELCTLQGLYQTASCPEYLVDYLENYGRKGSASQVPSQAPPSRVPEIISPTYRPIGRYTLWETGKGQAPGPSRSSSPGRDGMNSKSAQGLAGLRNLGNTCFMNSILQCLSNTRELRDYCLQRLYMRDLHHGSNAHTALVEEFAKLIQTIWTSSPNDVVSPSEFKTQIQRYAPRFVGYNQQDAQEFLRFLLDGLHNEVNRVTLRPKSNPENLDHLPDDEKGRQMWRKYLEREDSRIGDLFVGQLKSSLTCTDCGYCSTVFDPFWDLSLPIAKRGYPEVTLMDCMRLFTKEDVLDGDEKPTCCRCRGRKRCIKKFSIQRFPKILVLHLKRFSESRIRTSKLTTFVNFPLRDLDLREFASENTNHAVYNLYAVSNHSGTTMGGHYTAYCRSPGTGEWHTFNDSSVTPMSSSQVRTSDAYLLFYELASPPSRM
#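 USP2 core (20nM final) preincubated 30 min RT with compound, then Ub-PLA2 20nM and NBD C6-HPC 20uM final added; buffer 20mM Tris-HCl pH 8.0, 2mM CaCl2. Fluorescence Ex 460/Em 535 read at 0 and 2.5 h; normalized to NEM.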
# CRE Fsk mod = alters forskolin-stimulated CRE reporter signaling in CHO cells; Potency, µM (series often up to 38.2 µM), for the others: at the top dose activity change, negative = inhibition, actives largely listed as activators; CHO CRE-bla reporter (cAMP response element driving beta-lactamase), forskolin EC10, beta-lactamase ratio; actives 2.5% (n = 71,000); active = well fitted activation curve with a large enough effect in the signal ratio, with a control signal flat, not every such curve was filed as active; inconclusive = small, poorly fitted or top-dose-only effect, or effect the other way, or a change in a side signal; the % refers to the signal ratio; note: potency is the fitted concentration of half-maximal effect; % of control where 0% means no effect
#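 Modulation of forskolin-driven signalling is measured in CHO cells carrying a CRE-controlled beta-lactamase reporter. Cells are stimulated with EC10 NKH 477 in the presence of titrated compound for 3 h at 37 °C, then loaded with CCF4 for 2 h at room temperature.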
# Epigenetic mod = derepresses silenced GFP locus in mouse C127i cells; Potency, µM (doses to about 46.1 µM), for inactives: top-dose GFP derepression (activation); mouse C127i GFP locus derepression, cytometry, 30 h; actives 0.09% (n = 68,000); AID 597; note: % of control where 0% means no effect
#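 Murine C127i mammary cells carrying a silenced, stably integrated CMV-driven GFP reporter were treated with compound for 30 hours at 37 C. After PBS washes, GFP-positive cells were counted by laser-scanning microplate cytometry.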
# BRCT PPI red = BRCT-phosphoprotein interaction inhibition (red fluorophore); P38398; BRCT-phosphopeptide binding, red fluorescence polarization; Potency, µM (doses to about 76.9 µM), for inactives: at the top dose activity change, negative = inhibition, actives largely listed as inhibitors; actives 0.03% (n = 75,000); note: % is set by controls: 0 for no effect and ±100 for the full control effect
#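 Fluorescence polarization: 100 nM His-tagged BRCA1 BRCT with 100 nM TAMRA-labelled phospho-BACH1 decapeptide, phosphate buffer pH 7.3 with 150 mM NaCl, DTT, 0.01% Tween 20; 12 min RT. Binding inhibition seen as FP decrease.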
# Numbers without * were called inactive; ? = inconclusive; · = not tested or not shown; [ ] = another dose, or the depositor's remark. Unless noted, calls come from the whole dose curve; as a rule, active = well fitted curve in the direction sought with a large enough effect; inconclusive = small, poorly fitted or top-dose-only effect, or another doubt; inactive = no such curve, though single readings can be large; an effect the other way counts as inactive or inconclusive.
structure	HBB splicing	DNA Pol III inh	UbGFP stabilizer	15-hLO inh	BRCT inh green	Hsp90 Hop PPI	USP2a inh	CRE Fsk mod	Epigenetic mod	BRCT PPI red
Clc1ccc(Cc2nn3c(Cn4nnc5ccccc54)nnc3s2)cc1	0.2%[57.5 µM]	-4%	2%	-7%	2.9%	-6%	62%[activator]	?	4%	-2.0%
CC1=CC(C)(C)Nc2ccc(OC(=O)c3cccnc3)cc21	-4.2%[0.0738 µM]	-8%[11.4 µM]	-9%[9.17 µM]	-7%[11.4 µM]	0.1%	-17%[11 µM]	5%[7.66 µM]	?	?	0.2%
CC1(C)CC(=O)c2c(-c3cccs3)n[nH]c2C1	-3.5%	-3%	11%	1%	-1.4%	-9%	1%	?	3%	1.9%
Cc1ccc2nc(NC(=O)C3CCCN(S(=O)(=O)c4cccnc4)C3)sc2c1 (stereo unspecified)	-1.0%	-4%	-14%	1%	-2.7%	-5%[2.3 µM]	·	-11%	·	-1.5%
CCOc1ccccc1OCCCCCc1c(C)n[nH]c1C	0.1%	6%	-15%	15%	-1.1%	-7%	1%	10%	1%	-3.0%
CCOc1ccccc1NC(=O)CSc1nc2c(c(=O)n1C)SC(C)C2 (stereo unspecified)	-0.6%	-3%	4%	11%	-1.9%	-4%	·	5%	·	-1.8%
COc1ccc(-c2nc(CCNC(=O)c3ccco3)cs2)cc1OC	0.0%	-6%	0%	-6%	-1.0%	-3%	·	?	·	1.9%
COc1ccc(OC)c(NS(=O)(=O)c2ccc(SC)cc2)c1	-1.1%	0%	-10%	-4%	-0.2%	1%	-3%	24%	0%	0.4%

# Copied from the list:
# For HBB splicing, CC1=CC(C)(C)Nc2ccc(OC(=O)c3cccnc3)cc21 is listed with -4.2%[0.0738 µM]
# For BRCT PPI red, Clc1ccc(Cc2nn3c(Cn4nnc5ccccc54)nnc3s2)cc1 is listed with -2.0%

# The results go on.
structure	HBB splicing	DNA Pol III inh	UbGFP stabilizer	15-hLO inh	BRCT inh green	Hsp90 Hop PPI	USP2a inh	CRE Fsk mod	Epigenetic mod	BRCT PPI red
O=C1CC(c2ccco2)Sc2nc3ccccc3n21 (stereo unspecified)	-6.3%	-4%	-6%	?	-0.3%	-3%	16%	-5%	0%	-0.3%
COc1ccc(NC(=O)c2ccco2)cc1NC(=O)c1cc2ccccc2o1	·	-11%	-3%	-4%	-3.5%	-2%	25%	?	0%	-0.8%
Cc1n[nH]c(C)c1CCc1nc2c3ccccc3nc(SCC(N)=O)n2n1	-0.7%	-1%	0%	7%	4.1%	-1%	7%	?	1%	-2.3%
COc1ccc(NC(=O)COc2nsnc2N2CCCCC2)cc1	-0.4%	1%	-3%	-17%	1.0%	-6%	17%	1%	-2%	-0.3%
COc1cccc(-c2ccc3ncnc(NCc4cnc(C)cn4)c3c2)c1	0.1%	-1%	-5%	9%	4.3%	-8%	243%[activator]	0%	5%[9.22 µM]	1.3%
COc1cccc(-c2nn(C)c3sc(C(=O)N4CCOCC4)cc23)c1	-0.6%	-4%	-6%	6%	1.9%	?	·	10µM*	10%	-1.8%
COc1ccc(OC)c(NS(=O)(=O)c2cc(OC)ccc2OC)c1	0.2%	-2%	-1%	-8%	-4.2%	-5%	1%	3%	0%	0.0%
CN(C)CCSc1nnc2sc3ccccc3n12	0.1%	1%	2%	4%	0.3%	-11%	-2%	5%	-2%	-1.2%

# Only Epigenetic mod and DNA Pol III inh, for 2 of the compounds above:
mol,Epigenetic mod,DNA Pol III inh
COc1ccc(NC(=O)c2ccco2)cc1NC(=O)c1cc2ccccc2o1,0%,-11%
Cc1n[nH]c(C)c1CCc1nc2c3ccccc3nc(SCC(N)=O)n2n1,1%,-1%

# (listing goes on)
structure	HBB splicing	DNA Pol III inh	UbGFP stabilizer	15-hLO inh	BRCT inh green	Hsp90 Hop PPI	USP2a inh	CRE Fsk mod	Epigenetic mod	BRCT PPI red
O=C(CN1C(=O)c2ccccc2C1=O)N1CCN(c2nnc(-c3ccccc3)c3ccccc23)CC1	0.6%[0.369 µM]	-2%	-1%	-7%	-1.0%	-5%	-3%	9%	2%	0.1%
COc1ccc(-n2c(=O)cc(N3CC(C)OC(C)C3)[nH]c2=O)cc1 (stereo unspecified)	2.0%	2%	-6%	11%	-0.5%	-1%	-5%	-9%	6%	-3.9%
O=C(Nc1ccc(O)c(C(=O)O)c1)c1ccc2c(c1)C(=O)N(CC1CCCO1)C2=O (stereo unspecified)	4.0%	-1%	3%	-11%	-0.2%	-2%	0%	-13%	6%	-0.2%
NC(=O)c1cc(-c2ccccc2)nc(N2CCCCCC2)n1	0.5%	-3%	0%	-10%	-1.3%	6%	6%	?	4%	1.8%
Clc1ccccc1-c1nn2c(COc3ccccc3)nnc2s1	-0.2%	-4%	-3%	-5%	-0.4%	-2%	29%	-2%	3%	-0.1%
CCOC(=O)c1sc(NC(=S)n2cc(C)cn2)c(C(=O)OCC)c1C	-1.4%	3%	13%	-7%	-2.6%	-3%	-1%	?	3%	-1.1%
c1cncc(-c2cc(-n3ccnc3)ncn2)c1	1.4%	-5%	6%	?	-1.6%	-7%	1%	?	9%[9.22 µM]	-1.4%
O=C(CN1CCOCC1)N1CCN(c2nnc(-c3ccccc3)c3ccccc23)CC1	-0.2%	1%	-3%	4%	-2.9%	-5%	4%	12%	0%	-2.4%

# (further entries)
structure	HBB splicing	DNA Pol III inh	UbGFP stabilizer	15-hLO inh	BRCT inh green	Hsp90 Hop PPI	USP2a inh	CRE Fsk mod	Epigenetic mod	BRCT PPI red
CCC(=O)c1ccc(OCc2ccc(C(=O)OC)o2)c(OC)c1	-0.5%	-5%	3%	12%	-1.4%	-1%	-3%	-9%	7%	-0.7%
Cc1ccc(S(=O)(=O)N2CCCC2C(=O)Nc2nc3ccccc3s2)cc1 (stereo unspecified)	-7.7%	3%	-3%	?	0.0%	-6%	46%[activator]	?	2%	-1.4%
CCOC(=O)N1CCN(c2cc(=O)n(-c3cccc(Br)c3)c(=O)[nH]2)CC1	0.2%	-8%	-1%	1%	-2.1%	-5%	·	-5%	·	-0.8%
CCNC(=O)C1CCCN1S(=O)(=O)c1ccc(OC)cc1 (stereo unspecified)	-0.3%[57.5 µM]	2%	2%	0%	-2.8%	-1%	-3%	-4%	2%	-1.4%
CSc1ccccc1NC(=O)c1noc2c1CCC2	-2.0%	-17%	-6%	?	-1.5%	3%	16%	-11%	1%	-2.9%
CCOC(=O)c1sc(NC(=O)CSc2nnc(-c3ccco3)n2CC)c(C(=O)OCC)c1C	0.1%	-12%	1%	6.3µM*	14%	3%	-47%	6%	5%	3.9%
Clc1ccc(-c2nc(NCCN3CCOCC3)c3ccccc3n2)cc1	-2.2%	-2%	-1%	-10%	0.4%	0%	16%	8%	8%	-1.9%
CCC(=O)c1ccc(OCCN2CCOCC2)cc1	-0.4%	-1%	4%	2%	-1.7%	-3%	4%	4%	-3%	0.1%

# More results.
structure	HBB splicing	DNA Pol III inh	UbGFP stabilizer	15-hLO inh	BRCT inh green	Hsp90 Hop PPI	USP2a inh	CRE Fsk mod	Epigenetic mod	BRCT PPI red
CN(C)c1ccc(-c2noc(C3CCN(S(=O)(=O)c4ccc(C(=O)O)cc4)CC3)n2)cc1	-2.7%	-6%	-5%	-2%	-2.0%	-4%	14%	-11%	1%	-0.5%
CCc1c(C)sc(NC(=O)CC#N)c1C#N	0.1%	-7%	-2%	-11%	7.9%	-11%	33%[activator]	?	3%	-1.6%
Cc1nc2c(C(=O)NCCc3ccccc3)c[nH]n2c(=O)c1Cl	0.3%	-14%	23%	0%	-1.5%	3%	1%	1%	2%	1.1%
Cc1cc(NC(=O)C2CCCC2)nc2c1c(=O)oc1ccccc12	3.8%	-1%	-8%	-3%	1.9%	-3%	16%	?	4%	0.1%
O=C1c2[nH]nc(-c3ccccc3O)c2C(c2ccccc2)N1Cc1ccco1 (stereo unspecified)	9.2%[0.369 µM]	2%	-1%	?	-2.4%	-14%	28%	?	2%	-1.8%
COc1cccc(Cn2c(=O)c(CCc3ccccc3)nc3cnc(OC)nc32)c1	-2.3%	-3%	-6%	-1%	1.0%	24%	5%	13µM*	-3%[9.22 µM]	-3.2%
N#Cc1c(NC(=O)c2cc(C3CC3)on2)sc2c1CCC2	1.1%	-3%	15%	?	-0.7%	2%	·	?	-3%	0.9%
c1ccc(Cc2nnc3sc(-c4ccccn4)nn23)cc1	0.3%	-6%	0%	-6%	4.9%	-18%	26%	?	2%	0.7%

# Screening results from PubChem.

# Only part of the results is shown; count on the stated rates, not on these rows.
